VACV Venus inh: vaccinia inhibition (Venus reporter); Vaccinia virus Venus reporter expression, fluorescence; Potency, µM (highest dose often 36.5 µM), for the others: at the highest dose activity change, negative = inhibition, most hits filed as inhibitors; hit rate 0.46% among 330,000; AID 720580; active means well fitted inhibition curve with a large enough effect; inconclusive means small, poorly fitted or top-dose-only effect; inactive means no such curve, though single readings can be large or run the other way; tested in A549 cells; further: nearly all actives have a fitted effect of over 30% in size; inactives centre near -10
Vaccinia mCherry: inhibitors of vaccinia virus infection (mCherry reporter signal). hit rate 0.63% among 310,000. Vaccinia virus mCherry reporter infection, fluorescence; about a quarter of the inactives have no number. Potency, µM (top dose mostly 36.5 µM), without a hit: at the highest dose activity change, negative = inhibition, most hits filed as inhibitors; active = well fitted inhibition curve with a large enough effect; inconclusive = small, poorly fitted or top-dose-only effect; inactive = no such curve, though single readings can be large or run the other way; tested in A549 cells; further: nearly all actives have a fitted effect of over 35% in size; inactives centre near -10
An asterisk follows results filed as active; i = inactive; ? = inconclusive; nt = not tested or not shown; & = joins results of further samples; [ ] = another dose, or the depositor's remark. On the % scale 0 is the no-effect control and ±100 the full control effect; potency means the concentration at half of the fitted maximal effect. Rows were taken by chance. About 0.88% of those tested had a hit in this group.

Structure | Vaccinia mCherry | VACV Venus inh
C/C(=N/NC(=O)c1ccc(Br)o1)c1cccc(NC(=O)c2ccc(C)o2)c1 | -3.9% | -4.4%
Cc1c(Br)c([N+](=O)[O-])nn1CC(=O)NCC1CCCO1 (centres undefined) | -14.6% | -5.6%
COc1ccccc1-c1nc(-c2ccccc2)nc(N2CCN(C)CC2)c1C#N | -27.1% | -18.5%
COc1cc(NC(=O)c2ccccc2)c(OC)cc1NC(=O)CN1CCCCC1 | ? | -13.7%
O=C(O)CC1(CC(=O)Nc2cc(C(F)(F)F)cc(C(F)(F)F)c2)CCCCC1 | -4.8% | -14.8%
C[N+]1(C)C2CC(OC(=O)C(CO)c3ccccc3)CC1C1OC12 (centres undefined) | -9.0% | -8.8%&-5.0%
Cc1ccc(-c2csc3nnc(SCC(=O)Nc4nsc(-c5ccccc5)n4)n23)cc1 | -24.8% | -27.9%
CC(=O)N1CCN(C(=S)c2ccc(N(C)C)cc2)CC1 | -11.0% | -4.2%
Cc1ccc2c(cnn2C(=O)CCC(=O)NC2CCCCC2)c1 | -20.8% | -2.1%
CCn1ccc(C(=O)Nc2c(C)nn(Cc3c(F)c(F)c(F)c(F)c3F)c2C)n1 | -0.7% | -10.0%
CN1C(=O)c2ccccc2C(C(=O)NCCCN2CCCC2)C1c1c[nH]c2ccccc12 (centres undefined) | nt | 109.9%[activator]
CN(C)CCNc1ncnc2c1ncn2[C@H]1CN(Cc2ccc(-c3ccccc3)cc2)C[C@@H](CO)O1 | -19.4% | ?
Cc1ccc(NS(=O)(=O)c2ccc(Br)cc2)nc1 | i | -17.3%
O=C(N1CCOCC1)C1(S(=O)(=O)c2ccccc2)CC=CC1 | i | -4.9%
CCOC(=O)N1CCN(C(=O)COC(=O)Cc2ccc(OC)cc2)CC1 | -2.2% | -2.6%
COc1cc(/C=N/n2c(-c3ccc4c(c3)NC(=O)CO4)csc2=Nc2cccc(C)c2)ccc1O | -7.2% | ?
Cc1nc(-c2ccc(NC(=O)/C=C\C(=O)O)cc2)cs1 | -18.5% | -6.7%
C#CC(C)(C)NC(=O)c1ccccc1OC | -24.2% | -8.3%
COc1ccc(S(=O)(=O)N(C)CC(=O)NC2CCCC2)cc1Cl | nt | -8.2%
CCN(c1ccc(NC(=O)c2cccc(S(=O)(=O)N3CCN(C)CC3)c2)cc1)C(C)C | -14.8% | -20.8%
Cc1ccc(NC(=S)N(CCN(C)C)Cc2cccs2)cc1 | -3.3% | 0.0%
COc1ccc(CCNC(=S)N2CCN(S(=O)(=O)c3ccc(Cl)cc3)CC2)cc1 | i | -12.9%
CC(NC(=O)NC1CCCCC1)C(c1cccs1)N1CCN(Cc2ccccc2)CC1 (centres undefined) | -0.7% | -7.9%
O=C(COC(=O)c1ccc(Br)c(S(=O)(=O)N2CCOCC2)c1)NCCc1ccccc1 | -11.1% | 0.1%
O=C(COc1ccc(Br)cc1)N1CCN(Cc2ccc3c(c2)OCO3)CC1 | -18.4% | -16.8%
O=C(Cc1cccc2ccccc12)N/N=C/c1ccncc1 | -1.0% | -10.2%
CN1CCCc2cc3c(C(F)(F)F)cc(=O)oc3nc21 | -28.4% | -12.0%
COc1ccccc1C1OC(c2cccc([N+](=O)[O-])c2)=NN1C(C)=O (centres undefined) | -5.2% | -8.2%
CCCCNc1ccncc1S(=O)(=O)NC(=O)NC(C)C | nt | -7.5%
COc1ccc(Cl)cc1-c1nc(SCC(=O)NC2CCCC2)n[nH]1 | i | -23.6%
CCOC(=O)c1c(-c2ccccc2)csc1NC(=O)/C(C#N)=C\c1ccc(O)c(OC)c1 | -23.1% | 117.4%[activator]
COc1ccnc(Oc2ccccc2)n1 | -7.4% | -2.2%
C1CC1Cc1noc(CN2CCN(CC3CC3)CC2)n1 | i | -3.1%
CC1CCCC(C)N1C(=O)COC(=O)C1CCN(S(=O)(=O)c2ccc3c(c2)OCCO3)CC1 (centres undefined) | -21.5% | 12.1%
OC(COc1cccc(OCC(O)CN2CCOCC2)c1)CN1CCOCC1 (centres undefined) | -14.5%&-12.9% | -21.6%&-2.5%
O=C(Nc1ccc(S(=O)(=O)Nc2ncccn2)cc1)c1ccc(F)c(S(=O)(=O)N2CCOCC2)c1 | -3.2%[7.34 µM] | 7.5%[7.34 µM]
Cn1c(N)c(C(=O)CSc2nnc(Cc3cccs3)n2C2CC2)c(=O)n(C)c1=O | -14.7% | -1.1%
O=C(NCC1CC1)c1csc([C@@H]2O[C@H](CO)[C@H](O)[C@H](O)[C@H]2O)n1 | 13.2% | 1.5%
CCOCCn1c(CN(C)Cc2ccccc2)nc2c1c(=O)n(C)c(=O)n2C | i | -11.9%
COc1cc(C(=S)N2CCOCC2)cc(OC)c1OC(=O)c1ccc([N+](=O)[O-])cc1[N+](=O)[O-] | ? | ?

Some of these compounds in order of heavy-atom count, smallest number first.
Structure | Vaccinia mCherry | VACV Venus inh
CN1CCCc2cc3c(C(F)(F)F)cc(=O)oc3nc21 | -28.4% | -12.0%
CC(NC(=O)NC1CCCCC1)C(c1cccs1)N1CCN(Cc2ccccc2)CC1 (centres undefined) | -0.7% | -7.9%
CCOC(=O)c1c(-c2ccccc2)csc1NC(=O)/C(C#N)=C\c1ccc(O)c(OC)c1 | -23.1% | 117.4%[activator]

Fetched by structure from the entries so far (four):
Structure | Vaccinia mCherry | VACV Venus inh
Cc1c(Br)c([N+](=O)[O-])nn1CC(=O)NCC1CCCO1 (centres undefined) | -14.6% | -5.6%
CCN(c1ccc(NC(=O)c2cccc(S(=O)(=O)N3CCN(C)CC3)c2)cc1)C(C)C | -14.8% | -20.8%
COc1cc(C(=S)N2CCOCC2)cc(OC)c1OC(=O)c1ccc([N+](=O)[O-])cc1[N+](=O)[O-] | ? | ?
COc1cc(/C=N/n2c(-c3ccc4c(c3)NC(=O)CO4)csc2=Nc2cccc(C)c2)ccc1O | -7.2% | ?

Going on with the list.
Structure | Vaccinia mCherry | VACV Venus inh
O=C(C1CC(=O)N(c2ccc3c(c2)OCCO3)C1)N1CCN(S(=O)(=O)c2cccc(F)c2)CC1 (centres undefined) | 8.5% | -7.1%
Cc1cc(NC(=O)CSc2ccc3ccccc3c2)no1 | nt | -4.5%
CC1=C(C)CN2CC(C#N)=C(N)C2C1 (centres undefined) | -3.5% | -0.4%
Nc1nnc(SCCCC(=O)c2ccc(Br)cc2)s1 | -12.3% | -20.3%
Cc1ccc(CN(C)C(=O)c2c(C)nn(-c3ccccc3)c2C)cc1 | 18.7% | -8.0%
CC(C)NC(=O)Nc1cccc2c1O[C@H](CN(C)C(=O)NC1CCCCC1)[C@@H](C)CN([C@H](C)CO)C2=O | -14.5% | -27.8%
Cc1cccc(-n2c(SCC(N)=O)nc3c(c2=O)C2(CCCCC2)Cc2ccccc2-3)c1 | -27.1% | -26.8%
CCN(CC)CCCNC(=O)CCCn1c(=O)[nH]c2ccc(Br)cc2c1=O | -4.5% | -1.7%
O=C(Nc1ccc(S(=O)(=O)Nc2ccccc2)cc1)C1COc2ccccc2O1 (centres undefined) | -8.2% | -21.2%
CCN1C(=O)C(F)(CC)C(=O)c2ccccc21 (centres undefined) | i | -13.6%
Cc1nc2c3ccccc3nc(NNC(=O)CCC(=O)N3CCN(c4ccc(F)cc4)CC3)n2n1 | -13.9% | -24.8%&-11.2%
O=C1CC(c2cccc(F)c2)c2c(n3ncnc3[nH]c2=O)N1 (centres undefined) | -11.3% | -2.6%
CN(C)S(=O)(=O)c1ccc(C(=O)NCCC(=O)N2CCCC2)cc1 | -5.6% | -3.2%
CCC1=NC(c2ccc(Br)cc2)N(O)C1(C)C (centres undefined) | ? | -13.0%
Cn1c(NCc2ccco2)nc2c1c(=O)n(Cc1ccc(Cl)cc1Cl)c(=O)n2C | ? | -8.7%
O=C(Nc1ccc2ccccc2c1)C(c1ccc(C(F)(F)F)cc1)n1c(=O)c(-c2cc3ccccc3[nH]2)nc2ccccc21 (centres undefined) | ? | -21.5%
Cc1cc2ccccc2n1CCNC(=O)C(C)C | i | -3.7%
CCOC(=O)/C(=C/c1ccc(N2CCC(c3ccccc3)=N2)cc1)C(C)=O | -23.6% | -11.1%
Cc1ccc(Cc2c(-c3ccccc3)nc3c(Cl)cc(C(F)(F)F)cn23)cc1 | -12.2% | -6.1%
COc1cccc(NC(=O)CN(C)C(=O)c2ccc3[nH]c4c(c3c2)CC(C)CC4)c1 (centres undefined) | -25.3% | -19.0%
CCOC(=O)c1cc(C(=O)OCC)c2cccc(C)n2c1=O | -25.4% | -23.7%
COc1ccccc1Oc1nc2ccccn2c(=O)c1/C=C(\C#N)C(=O)Nc1c(C)n(C)n(-c2ccccc2)c1=O | -10.0% | -7.1%
CC(C)CN(C(=O)CCc1ccccc1Cl)c1c(N)n(Cc2ccccc2)c(=O)[nH]c1=O | -7.9% | -24.7%
Cc1cc(C(=O)N2CCCC(CO)(Cc3ccc(F)cc3)C2)c(C)o1 (centres undefined) | i | -12.9%
Cc1cc(C(=O)OCC(=O)NCc2ccccc2Cl)c(C)o1 | -6.1% | 0.5%
C=CCOC(=O)Nc1nc(CCNC(=O)OC(C)(C)C)c(C(=O)O)s1 | -6.6% | 10.1%
O=c1[nH]c2ccccc2n1C1CCN(C(c2ccccc2)c2nnnn2-c2ccc3c(c2)OCCO3)CC1 (centres undefined) | -18.1% | -26.8%
COc1ccc(-c2c3c(=O)n(C)c(=O)n(C)c3cn2C2CCCCC2)cc1 | -10.9% | -29.2%
CCN1c2ccccc2-c2nc(SCC(=O)Nc3cccc(C(F)(F)F)c3)ncc2S1(=O)=O | -20.9% | -2.5%
O=C(CSc1nccn1-c1ccccc1)Nc1nc2ccccc2s1 | -12.5% | -9.8%
CCC(C)Sc1ccc(-c2nc3cc(C)ccn3c2NC2CCCCC2)cc1 (centres undefined) | -23.1% | ?
CCn1cc(C(=O)O)c(=O)c2cnc(N3CCN(C(=S)NC(=O)c4ccc(OC)cc4)CC3)nc21 | -1.5% | -6.4%
O=C(NCc1ccc(Cl)cc1)C(=O)NCC1OCCCN1S(=O)(=O)c1cccs1 (centres undefined) | -5.7% | -19.1%
CSCCC(NC(=O)c1ccccc1Cl)C(=O)N(C)CC(=O)Nc1ccc(N2CCOCC2)cc1 (centres undefined) | -10.2% | -1.9%
Oc1ccc(-c2nc3cnccn3c2Nc2ccc3c(c2)OCCO3)cc1 | -29.1% | -4.2%
O=C(CCC1N=C2c3ccccc3N=C(SCc3ccc(F)cc3)N2C1=O)NC1CCCCC1 (centres undefined) | -7.0% | -13.3%
CCCCN1C(=O)C2(NNc3ccccc3O2)c2ccccc21 (centres undefined) | -16.8% | 12.7%
O=C(CSc1n[nH]c(=O)[nH]c1=O)N/N=C/C=C\c1ccccc1 | 13.0% | 0.3%
Cc1ccc(C)c(N(CC(=O)NCC2CCCO2)C(=O)CCC(=O)Nc2nccs2)c1 (centres undefined) | 7.2% | -4.9%
O=C(NCCCn1ncc2ccccc21)c1cc(COc2c(F)cccc2F)on1 | i | -7.0%
Cc1ccc(OCC(O)CN2CCN(Cc3ccc4c(c3)OCO4)CC2)c(C)c1 (centres undefined) | -29.4% | 11.4%&-27.1%
CSCCC(NC(=O)c1cc(CC(C)C)oc1C)C(=O)O (centres undefined) | -7.6% | 3.9%
Cc1cc(NC(=O)/C=C/C(=O)N(CC(=O)NC2CCCC2)c2ccc(F)cc2)no1 | -23.3% | -26.8%
Cc1cc(C)c(C)c(OCC(=O)O/N=C(\N)c2ccncc2)c1 | -13.1% | 1.6%
CCCN(CCC)S(=O)(=O)c1ccc(C(=O)Nc2sc3c(c2C(=O)OC)CCN(CC)C3)cc1 | -7.8% | -8.3%
CC1CCN(S(=O)(=O)c2csc(C(N)=O)c2)CC1 | -10.5% | -8.1%
CC(=O)NCCNC(=O)c1ccc2c(c1)S(=O)(=O)c1ccccc1C2=O | -6.4% | -6.9%
CCC(=O)c1c(O)n(C2CCCCCC2)c(=O)[nH]c1=O | i | -14.3%
O=C(NCc1ccc(Cl)cc1)C1CCCO1 (centres undefined) | i | -0.6%
C=CCNC(=O)C1CC1(c1cccc(C)c1)c1cccc(C)c1 (centres undefined) | -17.0% | -15.3%
CCCCCCSc1ccc(-c2nc3ccccn3c2NCCCC)cc1 | -8.2% | -15.4%
CCc1ccc(NC(=O)CSc2nc(=O)n(Cc3ccncc3)c3c2CCC3)cc1 | -14.4% | ?
CCCN1C(=O)C(O)(CC(=O)c2ccc(C(C)C)cc2)c2ccccc21 (centres undefined) | -17.0% | -17.4%
CC(CC(=O)N(C)CC(=O)Nc1ccc(N2CCOCC2)cc1)c1ccccc1 (centres undefined) | -1.6% | -10.5%
CCC1=NNC(=O)C(CC(=O)Nc2ccccc2)c2cc(OC)c(OC)cc21 (centres undefined) | -7.5% | -15.4%
CNc1nc(Oc2ccc(C(=O)OC)cc2)nc(SC)n1 | -17.1% | -10.8%
OCCSc1nncn1/N=C/c1c[nH]c2ccccc12 | -7.0% | 0.3%
CC(C)(C)OC(=O)N1CCCC(C(=O)Nc2cccc(C(=O)N3CCOCC3)c2)C1 (centres undefined) | -10.3% | -5.6%
O=C(CCNS(=O)(=O)c1ccccc1)N1CCN(c2ccccc2)CC1 | i | -8.6%
